Assay outcomes from PubChem BioAssay.
Mtb bLac sens: beta-lactam sensitization of Mtb H37Rv; M. tuberculosis H37Rv growth with meropenem, percent inhibition; hits of this screen are not shown here; inhibition, % at 25 µM; hit rate 0.27% among 330,000;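 active = about 74% or more and at least 40 points above the plate without the antibiotic, then above 30% in a dose series; inconclusive = first-round hits that could not be retested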;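 also: growth measured after seven days incubation then overnight dye step; 0% = bacteria only wells and 100% = bacteria with antibiotic; twin plates without the antibiotic show which effects depend on it; some results filed as inactive read as strong as hits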
Mtb growth: M. tuberculosis H37Rv growth inhibitors, H37Rv strain (AID 1626) | M. tuberculosis H37Rv growth inhibition; higher % means a stronger effect | one-dose inhibition, % at 10 µM; IC50 in µM for titrated hits | hit rate 0.95% among 220,000;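 active = confirmed in a dose series; inconclusive = inhibition above 80% but not taken into the dose series; inactive = below 80% or under 30% at every dose of the series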;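 also: bacteria incubated seven days before Alamar blue readout; 0% = bacteria only wells and 100% = bacteria with antibiotic wells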
YopH inh: blocks Yersinia enterocolitica YopH tyrosine phosphatase; inhibition, %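 (about 10 µM by stock and volumes)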; fluorescence Ex485/Em525; AID 898; hit rate 0.16% among 140,000;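 active = inhibition of 50% or more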;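 also: controls were vehicle for no effect and minimum signal wells for full effect; inactives centre near -20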
RecA intein inh: inhibitors of M. tuberculosis RecA intein splicing. hit rate 0.75% among 290,000. inhibition, %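 (about 9 µM by stock and volumes)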. P9WHJ3. cell-free RecA intein splicing, fluorescence; in the data active = inhibition above about 30%; inconclusive = no clear call, values can overlap the other calls;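 also: 0% = vehicle wells and 100% = reference inhibitor control wells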
Target sequence (P9WHJ3 whole entry, looked up): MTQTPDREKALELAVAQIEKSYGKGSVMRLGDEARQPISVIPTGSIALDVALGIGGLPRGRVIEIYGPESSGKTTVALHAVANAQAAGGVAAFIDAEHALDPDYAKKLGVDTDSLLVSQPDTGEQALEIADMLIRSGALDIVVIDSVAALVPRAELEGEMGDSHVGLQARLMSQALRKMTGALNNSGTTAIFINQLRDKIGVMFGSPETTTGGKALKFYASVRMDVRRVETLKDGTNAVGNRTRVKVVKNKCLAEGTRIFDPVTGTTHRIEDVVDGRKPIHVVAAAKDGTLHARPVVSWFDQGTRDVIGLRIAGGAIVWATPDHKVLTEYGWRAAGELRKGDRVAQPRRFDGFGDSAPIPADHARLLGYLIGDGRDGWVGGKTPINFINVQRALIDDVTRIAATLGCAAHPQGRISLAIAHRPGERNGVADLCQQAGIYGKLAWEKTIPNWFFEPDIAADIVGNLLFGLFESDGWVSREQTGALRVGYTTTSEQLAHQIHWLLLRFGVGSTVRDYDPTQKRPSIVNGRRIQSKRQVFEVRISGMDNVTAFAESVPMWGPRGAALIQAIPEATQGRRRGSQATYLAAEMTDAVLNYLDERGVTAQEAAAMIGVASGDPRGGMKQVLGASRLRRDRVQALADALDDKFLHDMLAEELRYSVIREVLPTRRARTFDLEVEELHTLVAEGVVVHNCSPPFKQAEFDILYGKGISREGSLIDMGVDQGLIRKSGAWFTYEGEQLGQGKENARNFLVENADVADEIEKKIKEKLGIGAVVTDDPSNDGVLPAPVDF
Arbovirus inh: arbovirus infection inhibition. arbovirus infection cell-based antiviral screen. inhibition, % at 10 µM. hit rate 0.37% among 200,000;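 active = inhibition from about 30%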;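 also: bluetongue infection of BSR cells; cell survival read as ATP light after 72 h; 0% = infected wells without compound and 100% = uninfected wells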
Arbovirus inh repeat: also measured in Arbovirus inh; calls as there; inhibition, %; measured here: 10K subset replicate screen; many hits read low in the repeat;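 first of two repeat runs on a subset; 0% = infected and 100% = uninfected wells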
* = called active by the depositor; ? = inconclusive; . = not tested or not shown; & = joins results of further samples.

SMILES	Mtb bLac sens	Mtb growth	YopH inh	RecA intein inh	Arbovirus inh	others
CC(C(=O)Nc1ccc(N2CCOCC2)cc1)N1C(=O)c2ccccc2C1=O (centres undefined)	0.2	-8.1%	-19.6	-2.0	13.2
CC(C(=O)Nc1cccc(S(=O)(=O)N2CCOCC2)c1)N1CCN(C/C=C/c2ccccc2)CC1 (centres undefined)	-4.7	-0.5%	.	-3.0	4.4
N=C1C=CC=C2C1=NC1(CCCCC1)N2O	10.8	-11.7%	-32.4	1.8	8.1
COc1ccccc1NC(=O)NCc1ccc(C)n1C	9.5	.	.	1.5	.
Cc1c(NC(=O)c2ccco2)c(=O)n(-c2ccccc2)n1C	-3.7	.	.	-0.2	.
CCCCn1cnc2cc(NCc3cccc(OC)c3O)ccc21	97.6	66.5%	-34.7	.	1.7
O=C(NCCc1ccc(Cl)cc1)C1CCCN(S(=O)(=O)c2cnc[nH]2)C1 (centres undefined)	-4.2	-2.1%	-39.1	.	5.2
COc1ccc(Br)cc1C(=O)Nc1ccc(N2CCCC2)cc1	8.3	.	.	-1.1	.
CN1CCN(c2oc(COc3ccc(-c4ccccc4)cc3)nc2C#N)CC1	78.8	15.4µM*	-18.0	5.8	-32.7
O=C(N/N=C1\CC(c2ccccc2)Oc2ccccc21)c1cccnc1 (centres undefined)	2.9	8.8%	.	-1.9	-22.5
Cc1noc(C)c1COc1cccc(C(=O)NCCc2c[nH]c3ccccc23)c1	4.9	6.0%	.	5.4	-14.8
C(#CCN1CCCC1)CC(c1ccccc1)c1ccccc1	-0.1	-11.1%	.	1.4	-16.2
COc1cccc(NC(=O)COc2ncnc3sc(C)c(C)c23)c1	-14.1	-2.6%	-22.4	1.2	-4.9
COc1ccccc1NS(=O)(=O)c1cc(C(=O)NCc2cccnc2)ccc1C	-8.5	.	.	0.7	.
O=C(Nc1cc(C(F)(F)F)ccc1-n1cncn1)c1ccc(Br)cc1	-1.1	-1.5%	-39.7	-0.1	-5.2
COCCCNC(=S)NC1CC2CCC(C1)N2Cc1ccccc1 (centres undefined)	-6.1	0.7%	.	0.5	2.5
Cc1cc(=O)oc2cc(OC(C)C(=O)NCC3CCC(C(=O)O)CC3)c(Cl)cc12 (centres undefined)	-2.8	.	.	-0.7	.
CC(C)NC(=S)NN(c1ccccc1)c1ccccc1	2.5	-10.9%	-22.9	2.8	-0.7
CCOc1c(Nc2cccc(Cl)c2)c(=O)c1=O	5.0	-16.4%	.	-6.6	.
O=C(Nc1cccc(S(=O)(=O)N2CCCC2)c1)c1ccncc1	-1.9	.	.	-0.4	.
C/C(=N\NC(=O)C(=O)Nc1ccc(C)cc1)c1ccncc1	-1.8	8.0%	-17.9	-1.1	6.1
COc1ccc(C2C(C(=O)c3sc(C)nc3C)=C(O)C(=O)N2CCCn2ccnc2)cc1 (centres undefined)	-0.4	.	.	-0.5	.
Cc1nn(-c2ccccc2)c(N)c1C1(O)C(=O)Nc2ccc([N+](=O)[O-])cc21 (centres undefined)	-2.6	-5.1%	.	1.5	.
COc1ccc(N2C(=O)CC(N3CCN(c4ccc(C(=O)c5cccnc5)cc4)CC3)C2=O)cc1 (centres undefined)	-3.4	-4.8%	-11.3	-17.4	-2.2
Cc1cnc(CNC(=O)c2ccc3oc(Cc4ccccc4)nc3c2)[nH]1	4.8	.	.	1.8	.
Next compounds.
SMILES	Mtb bLac sens	Mtb growth	YopH inh	RecA intein inh	Arbovirus inh	others
CCN(CC(=O)Nc1ccc2c(c1)OC(F)(F)O2)Cc1nc2ccccc2c(=O)[nH]1	39.4	10.6%	-18.3	-1.3	4.8
COC(=O)c1cc(OC)c(OC)cc1NC(=S)NC(=O)c1ccco1	2.1	.	.	5.3	.
Cc1ccc(C(O)(C(=O)NNc2ccc3ccccc3n2)c2ccc(C)cc2)cc1	52.2&39.4	22.7%&35.5%	-13.9&-29.2	-2.2&-1.3	-17.0&-31.3
Cc1ccc(-c2nc(CS(=O)CC(=O)NCCCc3ccccc3)c(C)o2)cc1 (centres undefined)	5.1	.	.	-0.1	.
O=C(Nn1cnnc1)c1ccc(OC(F)(F)C(F)C(F)(F)F)cc1 (centres undefined)	-7.4	.	.	-11.1	.
CCOc1ccc(C2CC(c3ccc(CC)cc3)n3nc(N)nc3N2)cc1 (centres undefined)	39.3	-9.8%	-16.4	3.3	-1.0	Arbovirus inh repeat=2.8
Cc1ccc(NC2=NC(=S)N(CC#N)C23CCCCC3)cc1	-2.1	.	-3.7	-1.5	-13.7
COC(=O)/C=C/COc1ccccc1[N+](=O)[O-]	7.9	10.3%	.	2.2	4.3
CCOC(=O)Cn1c(=O)c2c(nc(Br)n2CC(=O)OCC)n(C)c1=O	-4.7	-1.1%	-37.8	1.0	5.2
COc1cccc(C(=O)Nc2ccc(NC(=O)C3CC3)nc2)c1	-2.8	.	.	-2.6	.
O=C(NN1C(=O)C2C3C=CC(C4CC34)C2C1=O)c1ccccc1Cl (centres undefined)	0.9	-2.4%	-29.4	.	6.3
Cc1ccccc1N(CC(=O)NCCc1ccccc1)C(=O)c1csnn1	-9.4	.	.	-6.1	.
CCc1ccc(NC(=O)N[C@H](C(=O)O)C(C)CC)cc1 (some centres undefined)	0.1	3.4%	.	-1.6	.
O=C(CCc1nnc(Cc2cccc(C(F)(F)F)c2)o1)NCCc1ccccc1F	3.1	.	.	-1.6	.
COc1ccc(C)cc1S(=O)(=O)NCCC1=CCCCC1	.	0.7%	-1.2	1.0	5.9
O=C(NC1CCCCC1)c1cc([N+](=O)[O-])[nH]n1	7.3	2.2%	-10.1	0.9	-4.2
O=c1c(Cc2c(F)cccc2Cl)c(O)ccn1CCCN1CCOCC1	-3.2	3.3%	.	0.1	3.4
CCN(CC)Cc1cc(C(C)=O)ccc1O	-7.5	4.1%	-22.6	-7.0	-1.3
O=C1OCCC1Sc1nnc(-c2ccccc2)o1 (centres undefined)	-4.1	-9.1%	-16.7	0.1	8.6
COc1cc(/C=N/N=C2/SCC(=O)N2c2ccc(O)cc2)ccc1O	2.3	0.3%	.	2.4	-2.4
CCCNC(=O)NC(=O)c1cnccc1C(F)(F)F	-8.0	-14.3%	.	-2.5	.
CC(C)C(NS(=O)(=O)c1ccccc1)C(=O)N1CCCCCC1 (centres undefined)	4.2	.	.	-1.2	.
CC(=O)N1c2ccc(S(=O)(=O)NCCc3ccc(S(N)(=O)=O)cc3)cc2CC1C (centres undefined)	-3.5	.	.	-0.4	.
COc1ccc(NC(=O)CSc2nnc(Cc3ccc(C)cc3)c(=O)n2N)cc1	-7.3	.	.	-1.2	.
CCOC(=O)C1CCCN(Cc2nc(CC3CC3)no2)C1 (centres undefined)	-5.7	-5.0%	.	1.8	.

Compounds above that have a nitro group on carbon:
SMILES	Mtb bLac sens	Mtb growth	YopH inh	RecA intein inh	Arbovirus inh	others
Cc1nn(-c2ccccc2)c(N)c1C1(O)C(=O)Nc2ccc([N+](=O)[O-])cc21 (centres undefined)	-2.6	-5.1%	.	1.5	.
COC(=O)/C=C/COc1ccccc1[N+](=O)[O-]	7.9	10.3%	.	2.2	4.3
O=C(NC1CCCCC1)c1cc([N+](=O)[O-])[nH]n1	7.3	2.2%	-10.1	0.9	-4.2

Carrying on.
SMILES	Mtb bLac sens	Mtb growth	YopH inh	RecA intein inh	Arbovirus inh	others
CCCN(CCC)C(=O)Cc1coc2ccc3ccccc3c12	-0.7	10.8%	-24.8	3.0	17.3
O=C(c1cc(-c2ccco2)nc2ccccc12)N(Cc1nnc(-c2ccc(Cl)cc2)o1)C1CC1	5.7	.	.	11.3	.
COc1cccc(CN2CCCC(C(=O)Nc3ccc(-c4cscn4)cc3)C2)c1 (centres undefined)	98.3	.	.	1.0	.
COc1ccc(Cc2nnc(-c3ccccc3)o2)cc1	-1.5	5.5%	.	-2.8	6.7
Cc1ccc(NC(=O)CCN2CCN(C/C=C/c3ccccc3)CC2)cc1C	71.7	.	-49.9	3.5	1.2
COC(=O)c1c(NC(=S)NN2CCN(C)CC2)sc2c1CCC(C)C2 (centres undefined)	98.7	?	.	-6.9	-40.3
CCN1CCN(Cc2ccc(NC(=O)c3cc(NC(=O)N4CCNC4=O)cc(OC)c3)cc2C(F)(F)F)CC1	1.5	-1.3%	.	1.5	.
O=C(Nc1cc(C(F)(F)F)ccc1N1CCOCC1)c1ccc(F)cc1	-5.1	6.3%	-4.8	-0.3	14.9
c1cncc(C(c2nnnn2C2CCCC2)N2CCCC2)c1 (centres undefined)	-6.8	-4.6%	-15.6	-1.4	3.5
COc1ccc(NC2=CC(=O)N(C)C2=O)cc1	65.1	?	-12.8	12.6	-6.3
COc1ccccc1C/C(N)=N/OC(=O)COc1cccc(C)c1	3.0	8.4%	-31.5	4.7	-5.9
CN1C(=O)C(=Cc2ccc(Sc3ccccc3)o2)C(=O)N(C)C1=O	72.8	41.0%	.	-3.3	-1.2
Cc1cc(C)cc(OCC(=O)NNC(=O)c2cc3ccccc3oc2=O)c1	.	?	-14.0	.	-8.6
Cc1cc(C=C2C(=O)N(C)C(=S)N(C)C2=O)c(C)n1C1CCCCC1	0.4	-2.2%	-11.1	4.9	10.4
O=C(c1cnccn1)N(Cc1cccs1)C1(C(=O)NC2CCCCC2)CCCCC1	-0.1	0.6%	-14.0	2.1	-4.2
CCNc1nc(NC(C)C)nc(N(C#N)C(C)C(=O)N(CC)CC)n1 (centres undefined)	-0.4	-0.8%	.	-1.3	.
Nn1c(SCC(=O)Nc2ccccc2C(F)(F)F)nncc1=O	4.4	.	.	-3.6	.
Cc1c(C(=O)NC(=S)Nc2ccccc2N2CCCC2)cccc1[N+](=O)[O-]	.	34.4%	-26.5	7.2	5.8
CCOCCCN1CN(S(=O)(=O)c2ccc(Cl)cc2)c2nc3ccccc3nc21	8.2	2.8%	-12.1	5.0	14.5
O=C(NCc1ccccc1)C(c1cccs1)N(Cc1cccs1)C(=O)c1cnccn1 (centres undefined)	-4.5	-2.7%	-46.4	0.4	-6.3
CC1(C)Cc2cccc(OCC(=O)Nc3ccc(S(N)(=O)=O)cc3)c2O1	-5.3	.	.	-0.3	.
Cc1sc2nc(SCC(=O)N(CCO)CCO)n(C3CCCCC3)c(=O)c2c1C	-11.0	-3.3%	-37.1	-1.6	5.5	Arbovirus inh repeat=-4.8
CCCN(Cc1cc2cc(C)ccc2[nH]c1=O)C(=O)c1cccc(OC)c1	-11.2	-4.0%	-2.0	2.8	1.2
CCNc1nc(NCC)nc(Oc2ccc(OCC)nn2)n1	-16.2	-4.7%	-32.2	-3.0	-2.9	Arbovirus inh repeat=-3.8
CC(=O)Nc1ccc(NC(=O)C(C)Sc2nc3ccccc3c(=O)n2CC2CCCO2)cc1 (centres undefined)	1.8	.	.	-0.5	.
More entries follow.
SMILES	Mtb bLac sens	Mtb growth	YopH inh	RecA intein inh	Arbovirus inh	others
CCCCCn1c(CCNC(=O)c2cccs2)nc2ccccc21	14.1	-0.1%	13.9	3.5	-1.3	Arbovirus inh repeat=-6.8
O=C(Nc1cc2c3c(c1)CC(=O)N3CCC2)c1ccco1	-12.2	.	.	22.8	.
COCCCNC(=O)c1cn(C)c(=O)c2c1c1ccccc1n2C	0.4	.	.	-4.1	.
COc1ccc(Cl)cc1S(=O)(=O)NC(C)C(=O)NCc1ccccn1 (centres undefined)	-7.0	.	.	0.8	.
COc1cccc(C(=O)Nc2ccccc2C(=O)NCC2CCCO2)c1 (centres undefined)	-14.8	.	.	0.3	.
O=C(CN1C(=O)S/C(=C\c2ccc(Cl)cc2)C1=O)NC1C=CS(=O)(=O)C1 (centres undefined)	0.7	.	.	-2.5	.
CCOC(=O)c1sc(Nc2ccc(OCC)cc2)nc1C	8.8	2.7%	.	-1.1	-4.0
COc1ccc(NC2CCCN(C(=O)COc3ccc(Cl)cc3C)C2)cc1OC (centres undefined)	-11.4	.	.	3.5	.
Cc1ccc(Nc2nnc(SCC(=O)NCc3ccco3)s2)cc1	.	-2.4%	-18.6	-2.0	17.3
O=c1cc(CN2CC(O)Cc3ccc4ccccc4c32)nc2sccn12 (centres undefined)	5.3	6.5%	.	-1.8	5.0
O=C(NCCC1=CCCCC1)c1ccc(Cl)c(S(=O)(=O)Nc2ccccc2)c1	6.4	0.1%	-37.4	9.4	-7.3
COc1cc(/C=N/n2cnnc2-n2nc(C)cc2C)cc([N+](=O)[O-])c1O	6.2	9.8%	.	-4.6	.
CC(=O)N1CCC(C(=O)OCc2ccccc2F)(c2ccccc2)CC1	2.0	.	.	2.5	.
CCC(=O)c1c[nH]c(C(=O)NCc2cccc(C(F)(F)F)c2)c1	-5.7	.	.	2.1	.

Among those listed so far, 2 contain a COOH group.
SMILES	Mtb bLac sens	Mtb growth	YopH inh	RecA intein inh	Arbovirus inh	others
Cc1cc(=O)oc2cc(OC(C)C(=O)NCC3CCC(C(=O)O)CC3)c(Cl)cc12 (centres undefined)	-2.8	.	.	-0.7	.
CCc1ccc(NC(=O)N[C@H](C(=O)O)C(C)CC)cc1 (some centres undefined)	0.1	3.4%	.	-1.6	.

These rows are one share of the data; the hit share may differ from the screen's.
